Bioassay records from PubChem BioAssay.
RE007 growth inh – qHTS Assay for Inhibitors of the HIV-1 protein Vpr. S. pombe RE007 Vpr strain, BacTiter-Glo ATP luminescence, 24 h; control for the full effect not named in the record. Potency, µM (doses to about 92.2 µM), for the others: at the top dose activity change, negative = less growth. 360,000 tested, 0.21% active; active = well fitted falling curve with a large enough effect; inconclusive = small, poorly fitted or top-dose-only effect; inactive = no such curve, though single readings can be large or run the other way;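 note: % is set by controls: 0 for no effect and ±100 for the full control effect; nearly all actives have a fitted effect of over 50% in size; the assay follows cell death caused by Vpr and the record does not say whether a fall means rescue or toxicity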
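Fission yeast strain RE007, carrying one chromosomally integrated HIV-1 vpr copy, was seeded at OD 0.01 in PMG+AL medium with 23 nL pinned compound. After 24 h at 30 °C and 99% humidity, viability was read by BacTiter-Glo luminescence.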
NS1 function inh – qHTS Assay for Inhibitors of Influenza NS1 Protein Function. AID 2326, 2010. S. cerevisiae slowed by influenza A NS1, growth recovery by OD600. 270,000 tested, 0.4% active. Potency, µM (series often up to 46.1 µM), for inactives: at the top dose activity, positive = more growth; note: actives are rising curves; nearly all actives have a fitted effect of over 50% in size
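Growth recovery, yeast-based: influenza A NS1 expressed in S. cerevisiae causes slow growth, and suppressors are detected by OD600. The parent strain without NS1 is used as positive control.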
Marburg entry inh – qHTS for inhibitors of binding or entry into cells for Marburg Virus; 300,000 tested, 1.8% active; Potency, µM (titrated, usually from 37.8 µM), without a hit: at the highest dose activity change, negative = inhibition, usual class: inhibitors; Marburg virus pseudotyped entry inhibition, cell reporter; control for the full effect not named in the record; about a third of the inactives were read at about 46 µM; active = well fitted inhibition curve with a large enough effect; inconclusive = small, poorly fitted or top-dose-only effect, or effect the other way; inactive = flat fitted curve, though single readings scatter; tested in HEK293 cells; about a fifth of its hits are not listed in these tables; note: % is set by controls: 0 for no effect and ±100 for the full control effect; luciferase read-out
SARS PLpro yeast – qHTS of Yeast-based Assay for SARS-CoV PLP; S. cerevisiae expressing SARS-CoV PLpro, growth rescue; control for the full effect not named in the record; Potency, µM (titrated, usually from 32.9 µM), for the others: at the highest dose activity, positive = growth rescue; 330,000 tested, 0.19% active; AID 485353, 2010; note: 0% is about no effect; nearly all actives have a fitted effect of over 55% in size; growth read by luminescence after 48 h
Lassa entry inh – qHTS for Inhibitors of binding or entry into cells for Lassa Virus; Potency, µM (titrated, usually from 37.9 µM), for inactives: at the top dose activity change, negative = inhibition, usual class: inhibitors; Lassa virus pseudotype entry inhibition, cell reporter; control for the full effect not named in the record; 300,000 tested, 1.2% active; AID 540256, 2011; active means well fitted inhibition curve with a large enough effect; inconclusive means small, poorly fitted or top-dose-only effect, or effect the other way; inactive means flat fitted curve, though single readings scatter; tested in HEK293 cells; note: % is set by controls: 0 for no effect and ±100 for the full control effect; nearly all actives have a fitted effect of over 50% in size; luciferase read-out
Cruzain noTriton – qHTS Assay for Promiscuous and Specific Inhibitors of Cruzain (without detergent); Cruzipain (Trypanosoma cruzi), P25779; purified cruzain, Z-FR-AMC fluorescence, no detergent; Potency, µM, inactives show max response, negative = inhibition, usual class: inhibitors; 200,000 tested, 2.3% active; AID 1476, 2009; active = well fitted curve in the direction sought with a large enough effect; inconclusive = small, poorly fitted or top-dose-only effect, or another doubt; inactive = no such curve, though single readings can be large; an effect the other way counts as inactive or inconclusive;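 note: plate controls were enzyme without inhibitor for no effect and buffer without enzyme for full effect; nearly all actives have a fitted effect of over 40% in size; top concentration of the series not given in the record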
Target sequence (P25779 123-467 limits assumed): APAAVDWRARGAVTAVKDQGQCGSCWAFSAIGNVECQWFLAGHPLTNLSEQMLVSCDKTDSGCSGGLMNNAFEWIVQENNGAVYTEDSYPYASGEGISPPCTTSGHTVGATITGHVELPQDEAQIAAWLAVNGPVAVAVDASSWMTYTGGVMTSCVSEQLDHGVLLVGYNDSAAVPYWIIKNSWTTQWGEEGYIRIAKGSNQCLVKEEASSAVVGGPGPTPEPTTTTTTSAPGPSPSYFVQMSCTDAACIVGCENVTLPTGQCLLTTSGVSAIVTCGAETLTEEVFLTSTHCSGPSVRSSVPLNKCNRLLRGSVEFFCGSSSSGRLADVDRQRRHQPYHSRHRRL
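Detergent-free condition (0.00005% Triton X-100) in acetate buffer pH 5.5 with DTT. 1.5 nM enzyme and compound were pre-mixed 15 min, then 2 uM Z-FR-AMC substrate added; reaction progress from fluorescence change between first and third reads (60 s).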
Cruzain Triton – qHTS Assay for Promiscuous and Specific Inhibitors of Cruzain (with detergent). Potency, µM, for inactives: max response, negative = inhibition, usual class: inhibitors. 200,000 tested, 0.43% active. purified cruzain, Z-FR-AMC fluorescence, 0.01% Triton. Cruzipain (Trypanosoma cruzi), P25779; active = well fitted curve in the direction sought with a large enough effect; inconclusive = small, poorly fitted or top-dose-only effect, or another doubt; inactive = no such curve, though single readings can be large; an effect the other way counts as inactive or inconclusive;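 note: plate controls were neutral wells for no effect and buffer without enzyme for full effect; nearly all actives have a fitted effect of over 40% in size; top concentration of the series not given in the record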
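Detergent-containing run (0.01% Triton X-100) in acetate buffer pH 5.5 with 5 mM DTT: enzyme at 1.5 nM final, 15 min compound preincubation at room temperature, then 2 uM Z-FR-AMC substrate. Activity taken as 60 s fluorescence increase at 360/450 nm.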
StopGo reporter – High Throughput Screening for Foot and Mouth Disease Virus Antivirals | Potency, µM (titrated, usually from 57.9 µM), without a hit: top-dose signal change, negative = less light | AID 1159524, 2015 | 410,000 tested, 1.2% active | human cells with a luciferase reporter of 2A StopGo recoding; control for the full effect not named in the record; active = well fitted falling curve with a large enough effect; inconclusive = small, poorly fitted or top-dose-only effect; inactive = no such curve, though single readings can be large or run the other way; tested in HEK293T cells; note: % is set by controls: 0 for no effect and ±100 for the full control effect; nearly all actives have a fitted effect of over 45% in size; luciferase light after 4 h
Numbers without * were called inactive; ? = inconclusive; . = not tested or not shown; & = joins results of further samples; [ ] = remark or other dose. Unless noted, calls come from the whole dose curve; as a rule, active means well fitted rising curve with a large enough effect; inconclusive means small, poorly fitted or top-dose-only effect; inactive means no such curve, though single readings can be large or run the other way. Potency is the fitted concentration of half-maximal effect. Compounds were not picked by outcome. About 4.6% of those tested had a hit in this group.

Preview:
Below each SMILES: RE007 growth inh	NS1 function inh	Marburg entry inh	SARS PLpro yeast	Lassa entry inh	Cruzain noTriton	Cruzain Triton	StopGo reporter
(1) CCC(CC)C(=O)NCc1ccc(Cl)cc1
→ -4%	.	-6%[46.1 µM]	1%	-5%[46.1 µM]	.	.	-11%
(2) CC(C)(C)C(=O)NC(=S)Nc1ccccn1
→ 1%	-6%	19%[46.1 µM]	16%	12%	.	.	28%
(3) O=C(N/N=C/c1ccco1)c1cc(Br)ccc1OCc1ccccc1
→ -10%	17%	?	-6%	1%	-23%	-1.4%	-16%
(4) Cc1ccc(CN2C(=O)CC(Nc3ccc(N4CCOCC4)cc3)C2=O)cc1 (stereo not drawn)
→ -13%	16%	.	-8%	.	.	.	1%
(5) Cc1cccc(NC(=O)CSc2nc(C)c(CC(=O)c3ccc(Br)cc3)c(C)c2C#N)c1C
→ 6%	6%	?	7%	1%	13µM*	2.9%	0%
(6) COCCNC(=O)C(=O)NNS(=O)(=O)c1ccc(Cl)cc1
→ 8%	-1%	12%[46.1 µM]	0%	-19%[46.1 µM]	.	.	-1%

The whole of this part, from the start:
Below each SMILES: RE007 growth inh	NS1 function inh	Marburg entry inh	SARS PLpro yeast	Lassa entry inh	Cruzain noTriton	Cruzain Triton	StopGo reporter
(1) CCC(CC)C(=O)NCc1ccc(Cl)cc1
→ -4%	.	-6%[46.1 µM]	1%	-5%[46.1 µM]	.	.	-11%
(2) CC(C)(C)C(=O)NC(=S)Nc1ccccn1
→ 1%	-6%	19%[46.1 µM]	16%	12%	.	.	28%
(3) O=C(N/N=C/c1ccco1)c1cc(Br)ccc1OCc1ccccc1
→ -10%	17%	?	-6%	1%	-23%	-1.4%	-16%
(4) Cc1ccc(CN2C(=O)CC(Nc3ccc(N4CCOCC4)cc3)C2=O)cc1 (stereo not drawn)
→ -13%	16%	.	-8%	.	.	.	1%
(5) Cc1cccc(NC(=O)CSc2nc(C)c(CC(=O)c3ccc(Br)cc3)c(C)c2C#N)c1C
→ 6%	6%	?	7%	1%	13µM*	2.9%	0%
(6) COCCNC(=O)C(=O)NNS(=O)(=O)c1ccc(Cl)cc1
→ 8%	-1%	12%[46.1 µM]	0%	-19%[46.1 µM]	.	.	-1%
(7) C/C(=N\NC(=O)c1cccc(S(=O)(=O)N2CCCC2)c1)c1ccc(C)cc1
→ 5%	.	-15%	-1%	-10%	.	.	?
(8) C/C(=N\NC(=O)c1ccccc1)c1ccc(NC(=O)c2cccs2)cc1
→ 6%	-15%	24%	-38%	-2%	?	-2.9%	12%
(9) O=C(Nc1ccccc1N1CCN(C(=O)c2ccc(Cl)cc2)CC1)c1cccnc1
→ 5%	5%	?	6%	-6%	-2%	-5.7%	-18%
(10) CC(C)C(=O)N(c1ccc2oc(=O)sc2c1)S(=O)(=O)c1cccs1
→ 27%	?	-20%[46.1 µM]	2%	-2%	-11%	-7.1%	-30%
(11) CCOC(=O)N1CCN(c2nnnn2-c2ccccc2)CC1
→ 3%	2%	30%	3%	2%	2%	3.9%	-19%
(12) O=C(O)c1ccc(CNCc2ccccc2Cl)s1
→ .	.	2%[46.1 µM]	.	?	5%	-1.0%	24%
(13) N#Cc1cnn(Cc2ccc(Cl)cc2)c1N
→ -16%	16%	?	-5%	-7%	-4%	-1.4%	-24%
(14) Fc1cccc(Cl)c1CSc1nnc(COc2cccc3cccnc23)o1
→ 12%	-90%	4%	-4%	3%	0%	0.3%	.
(15) O=C(Nc1nc2ccc3ccccc3c2s1)c1ccc(N2CCCCC2)c([N+](=O)[O-])c1
→ 10%	5%	-5%	14%	5%	6.3µM*	-5.3%	-15%
(16) COc1ccc(S(=O)(=O)Cc2ccc(C(=O)N3CC(C)CC(C)C3)o2)cc1 (stereo not drawn)
→ -2%	7%	.	3%	.	.	.	-11%
(17) CC1CN(C(=O)[C@@H]2CCCN2S(=O)(=O)c2ccc(Cl)cc2)CC(C)O1 (stereo partly drawn)
→ -19%	.	3%[46.1 µM]	.	15%[46.1 µM]	.	.	-7%
(18) COC(=O)c1ccccc1NC(=O)CSc1ncccn1
→ 10%	-4%	23%	-2%	17%	.	.	18%
(19) Cc1ccc(C(=O)O)cc1NC(=O)c1ccc(Cn2nc(C)c(Cl)c2C)o1
→ -5%	.	0%[46.1 µM]	-7%	15%	.	.	5%
(20) O=C(CSc1nc2ncc(Cl)cc2[nH]1)N1CCOCC1
→ 19%	.	4%[46.1 µM]	6%	-10%[46.1 µM]	.	.	24%
(21) CC1=NN(c2ccc([N+](=O)[O-])cc2)C(=O)C1
→ -25%	.	?	.	17%	.	.	-14%
(22) CN(C)C(=O)COc1ccc(Br)cc1
→ -4%	3%	?	-16%	14%	-3%	-1.3%	-4%
(23) CN(C)S(=O)(=O)c1ccc2c(c1)c(=O)c(C(=O)N1CCOCC1)cn2C
→ -4%	2%	1%	-2%	.	1%	1.8%	-5%
(24) CCOCCCNC(=O)C(NC(=O)CC1NC(=O)NC1=O)c1ccc(Cl)cc1 (stereo not drawn)
→ 10%	0.89µM*	16%	8%	5%	-3%	1.2%	-13%
(25) CC(Oc1ccccc1)C(=O)Nc1ccc(S(=O)(=O)N2CCCC2)cc1 (stereo not drawn)
→ -1%	-2%	-22%[46.1 µM]	-3%	1%	.	.	-20%
(26) CCOC(=O)N1CCC(NC(=O)c2cnc3n(c2=O)CCS3)CC1
→ 20%	-48%	.	1%	.	.	.	-8%
(27) COc1ccc(-c2nnn(Cc3nc(N)nc(N4CCOCC4)n3)n2)cc1OC
→ 9%	?	2%	3%	-1%	-1%	0.7%	0%
(28) CC(=O)OCC(=O)NCc1ccc2c(c1)OCO2
→ 1%	6%	-2%	-6%	2%	5%	1.1%	-19%
(29) COc1ccccc1/C=C/C=c1\sc2nc(=O)c(Cc3ccccc3)nn2c1=O
→ -1%	8%	-2%	1%	-5%	.	.	-15%
(30) Nc1cc2c(cc1C(=O)c1ccc(Cl)cc1)OCCO2
→ ?	-7%	-3%	-8%	2%	7%	-6.1%	-2%

Other entries.
Below each SMILES: RE007 growth inh	NS1 function inh	Marburg entry inh	SARS PLpro yeast	Lassa entry inh	Cruzain noTriton	Cruzain Triton	StopGo reporter
(31) Cc1cccn2cc(CCNC(=O)Cc3cccs3)nc12
→ -18%	-3%	4%[46.1 µM]	1%	-5%[46.1 µM]	.	.	11%
(32) CCOC(=O)c1ccc(N2C(=O)CC(Sc3nnc(C)s3)C2=O)cc1 (stereo not drawn)
→ 20µM*	-27%	8%&8%	-38%	-1%	-10%	4.1%	0%
(33) Cc1ccc(C(=O)NC(Cc2c[nH]c3ccccc23)C(=O)O)o1 (stereo not drawn)
→ -2%	13%	3%	4%	17%	3%	-6.2%	-15%
(34) COc1ccccc1-c1noc(-c2cccnc2)n1
→ -15%	-4%	13%	-10%	9%	10%	2.3%	38%[activator]
(35) COc1ccc(C2=C(C)C(=O)N(Cc3ccc(C(=O)Nc4ccc(F)cc4C)cc3)S2(=O)=O)cc1
→ .	.	.	.	?	?	-8.1%	-23%
(36) O=C(Nc1ccc(C(=O)OCc2cc(=O)n3nc(C4CC4)sc3n2)cc1)c1cccc(Cl)c1
→ .	.	.	.	-2%[46.1 µM]	-7%	0.2%	-17%
(37) Brc1cnc2nc(SC/C=C/c3ccccc3)[nH]c2c1
→ 4%	-4%	12%[46.1 µM]	-1%	-4%	.	.	14%
(38) Cc1cccn2c(=O)nc(SCC(=O)Nc3ccc4c(c3)OCCO4)nc12
→ -6%	.	?	4%	?	.	.	-19%
(39) CCCN(CC(=O)Nc1ccccc1C)C(=O)c1ccc(C2SCCS2)cc1
→ 1%	.	-20%	-9%	-27%	.	.	-2%
(40) CCN(CC)CCCNC(=O)c1ccc(C)c(NC(=O)C2=C(C)OCCS2)c1
→ -9%	6%	.	0%	.	.	.	-8%
(41) COc1ccccc1N1C(=O)CSC1=S
→ -6%	27%	.	0%	.	.	.	-11%
(42) Cc1ccc(CNc2cnn(C34CC5CC(CC(C5)C3)C4)c(=O)c2Cl)cc1
→ 10%	8%	2%	-15%	9%	-9%	-5.4%	0%
(43) Oc1c(C=NCc2ccncc2)sc2ccccc12
→ -19%	-7%	13%&13%	-19%	21%	-14%	-2.0%	52%[activator]
(44) CNC(=S)NC(CC(=O)OC)c1ccc2c(c1)OCO2 (stereo not drawn)
→ -5%	1%	3%[46.1 µM]	0%	2%[46.1 µM]	.	.	-12%
(45) CCN=C(NC#N)SCc1c(F)cccc1Cl
→ 3%	12%	0%	6%	1%	10%	0.8%	-17%
(46) COc1cccc(C2C(=O)N(C3CCCCC3)CC(=O)N2Cc2ccc(F)cc2)c1 (stereo not drawn)
→ 2%	1%	-3%	-12%	-17%	-2%	4.1%	-3%
(47) COc1ccc(C(=O)NCCc2ccccc2F)cc1OC1CCN(C(C)=O)CC1
→ -7%	3%	-12%	5%	?	.	.	-3%
(48) CCC(C)NC(=O)[C@@H]1CCCN1C(=O)C1CCN(S(=O)(=O)c2ccc(C)cc2)CC1 (stereo partly drawn)
→ -2%	6%	.	2%	.	.	.	-5%

Results in SARS PLpro yeast, for some of the entries so far:
nr	Structure	SARS PLpro yeast
6	COCCNC(=O)C(=O)NNS(=O)(=O)c1ccc(Cl)cc1	0%
7	C/C(=N\NC(=O)c1cccc(S(=O)(=O)N2CCCC2)c1)c1ccc(C)cc1	-1%
